Screens: PubChem BioAssay, National Center for Advancing Translational Sciences (NCATS)
Vaccinia Venus: vaccinia inhibition (Venus reporter); Vaccinia virus Venus reporter expression, fluorescence; 330,000 compounds, 0.46% hits; Potency, µM (top dose mostly 36.5 µM), for the others: at the highest dose activity change, negative = inhibition, usual class: inhibitors; active means well fitted inhibition curve with a large enough effect; inconclusive means small, poorly fitted or top-dose-only effect; inactive means no such curve, though single readings can be large or run the other way; tested in A549 cells; further: nearly all actives have a fitted effect of over 30% in size; inactives centre near -10
VACV mCherry inh: inhibitors of vaccinia virus infection (mCherry reporter signal); Vaccinia virus mCherry reporter infection, fluorescence; about a quarter of the inactives have no number; Potency, µM (titrated, usually from 36.5 µM), inactives show at the top dose activity change, negative = inhibition, usual class: inhibitors; 310,000 compounds, 0.63% hits; active = well fitted inhibition curve with a large enough effect; inconclusive = small, poorly fitted or top-dose-only effect; inactive = no such curve, though single readings can be large or run the other way; tested in A549 cells; further: nearly all actives have a fitted effect of over 35% in size; inactives centre near -10
An asterisk follows results filed as active; i = inactive; ? = inconclusive; / = not tested or not shown; [ ] = dose if it differs, or a comment. On the % scale 0 is the no-effect control and ±100 the full control effect; potency means the concentration at half of the fitted maximal effect.

SMILES	Vaccinia Venus	VACV mCherry inh
Cc1ccc(NC(=O)OCCNC(=O)OC(C)C)cc1	-7%	-11%
Cc1ccc(OC(=O)c2cc(-c3ccc4c(c3)OCCO4)on2)cc1C	-4%	-5%
C/C(CCN1CCc2nc(-c3ccccc3)c(-c3ccccc3)cc2C1)=N\O[C@@H](C)c1cc(-c2c(C)cc(C)cc2C)no1	-24%	?
CC12CCC(=O)N1C(C(=O)Nc1nc(-c3ccccc3Cl)cs1)CS2 (centres undefined)	?	?
CC(=O)c1c(N2CCOCC2)nc(=O)n(-c2ccccc2)c1C	-21%	i
O=C(NCC1CCCO1)C1CCN(C2CCN(C3CCCCCC3)CC2)CC1 (centres undefined)	-2%	?
COc1cc(/C=C(/NC(=O)c2ccccc2)C(=O)Nc2cccc(O)c2)c([N+](=O)[O-])cc1OC	2%	i
COc1ccc(N(CC(=O)NCc2ccncc2)S(=O)(=O)c2ccccc2[N+](=O)[O-])c(OC)c1	-8%	-1%
COc1ccc(C(CNC(=O)c2oc3c(Cl)cccc3c2C)N2CCCC2)cc1 (centres undefined)	-26%	?
O=C(CSc1nnc(CNC(=O)c2ccc(F)cc2)o1)NCc1ccc2c(c1)OCO2	-8%	-10%
CC1(C)CC(=O)c2cc(-c3nc(-c4ccc(Cl)cc4)cs3)c(=O)n(-c3ccc(F)cc3)c2C1	-4%	-11%
Cc1cc(C)c2ccc(=S)[nH]c2n1	4%	i
COc1ccc(CN2CCC(C(=O)NC(c3ccc4c(c3)OCO4)c3ccccn3)CC2)cc1 (centres undefined)	-10%	36%[activator]
COc1ccc(CN2CCc3ccccc3C2)c(OC)c1OC	-2%	-10%
CC(=O)N1c2ccc(S(=O)(=O)NCCC(=O)NCc3ccc(N(C)C)cc3)cc2CC1C (centres undefined)	-12%[7.34 µM]	i[7.34 µM]

Structures from the list above with a nitro group on carbon (2):
SMILES	Vaccinia Venus	VACV mCherry inh
COc1cc(/C=C(/NC(=O)c2ccccc2)C(=O)Nc2cccc(O)c2)c([N+](=O)[O-])cc1OC	2%	i
COc1ccc(N(CC(=O)NCc2ccncc2)S(=O)(=O)c2ccccc2[N+](=O)[O-])c(OC)c1	-8%	-1%

(next part)
SMILES	Vaccinia Venus	VACV mCherry inh
O=C(CN1CCN(C(=O)c2ccc(OCc3cn4ccccc4n3)cc2)CC1)Nc1cccc(F)c1	-1%	i
COc1cccc(NC(=S)N(Cc2cccc(Br)c2)CC2CCC(C(=O)O)CC2)c1 (centres undefined)	-11%	-1%
NC(=O)CC(NC(=O)c1ccc(Br)cc1)c1ccc(N2CCN(c3ccc(F)cc3)CC2)c([N+](=O)[O-])c1 (centres undefined)	?	i
C=CCn1c(SCC(=O)N(CCOC)c2c(N)n(CCCC)c(=O)[nH]c2=O)nnc1-c1ccc(Cl)cc1	-8%	?
CSCCC(N=CC1=C(O)CC(C)(C)CC1=O)C(=O)O (centres undefined)	-10%	/
Cc1nc(N2CCCC2)ncc1C(=O)Nc1ccc(OC(F)(F)F)cc1	-4%	6%
COc1cccc2c(Cl)c(CCCl)c(C)nc12	-19%	i
Cc1ccc(-c2nc3ccccn3c2Nc2ccc(F)cc2)o1	-7%	-12%
CCC(=O)c1ccc(OCc2ccc(C(=O)c3ccccc3)cc2)cc1	-6%	-1%
c1ccc(NC2=Nc3cccc4cccc2c34)cc1	-19%	-28%
Cc1noc(C)c1COC(=O)c1csc2c1CCCC2	-13%	-10%
COC(=O)\C(C(C)=O)=C(/C=C/C=C/C=C/N(C)C)N(C)C	-10%	/
C=C(C)C1CC=C(C)/C(=N/NC(=O)c2cccs2)C1 (centres undefined)	-4%	-14%
CCN/N=C(\Cc1nc2ccccc2[nH]1)c1ccccc1	-12%	-21%
CCOC(=O)/C=C1/SCC(=O)N1CC(=O)NC12CC3CC(CC(C3)C1)C2	-10%	i
O=C(NCCN1CCOCC1)C1CCCN(S(=O)(=O)c2ccc(F)cc2)C1 (centres undefined)	-11%	-11%
Cc1sc2nc(SCc3nc(-c4ccccc4)no3)n(-c3ccccc3)c(=O)c2c1C	-8%	-5%
Cc1ccc(/C=C2\SC(=S)N(c3c(C)n(C)n(-c4ccccc4)c3=O)C2=O)cc1	-13%	-23%
CN(C(=O)Nc1ccccc1)n1cnc2ccccc2c1=O	-4%	-11%
Cc1ccc(C)c(S(=O)(=O)N2CCN(C(=O)C(C)Sc3ccccc3)CC2)c1 (centres undefined)	-21%	-4%
COc1ccc(O)c(CN2CCC(n3nccc3NC(=O)c3ccccc3Cl)CC2)c1	-15%	i
Cc1cnc(C(=O)Nc2ccc(C)c(S(=O)(=O)N3CCCCC3)c2)cn1	-4%	i
Cn1c(=O)c2[nH]c(SCC(=O)c3ccc(F)cc3)nc2n(C)c1=O	-5%	-13%
CN(Cc1ccccc1)C(=O)c1cccc(NC(=O)Cc2ccc(NC(=O)C3CCN(C(=O)C4CCCCC4)CC3)cc2)c1	-22%	-13%
COc1ccc2c(OC)c3ccoc3nc2c1OC	-6%	-8%
CCOC(=O)c1c(C)[nH]c(C(=O)OCc2ccccc2)c1C	-17%	-8%
S=C(NCCc1ccccn1)Nc1cccc(Cl)c1	-18%	-22%
O=C(CCCOc1ccc(Cl)cc1Cl)Nc1ccc(O)cc1C(=O)O	-2%	-5%
CC(C)c1cc(C(C)C)c(S(=O)(=O)N2c3ccccc3[C@@]3(Br)C[C@H]4C(=O)N[C@@H](Cc5ccccc5)C(=O)N4[C@@H]23)c(C(C)C)c1	-24%	i
C=CCN1C(=O)/C(=C\c2cc(Br)c(OCc3ccccn3)c(OC)c2)SC1=S	-13%	-4%
COc1ccc(Nc2nc(N)nc(CN3CCc4ccccc4C3)n2)cc1	-11%	-18%
CSc1ccccc1NC(=O)CN(C)CC(=O)c1c(C)[nH]c2ccccc12	-15%	-27%
COc1ccc(/C=N/NC(=O)CSCc2ccc([N+](=O)[O-])cc2)cc1OC	7%	i
CC(C)(C)c1ccc(C(=O)Nc2c(C(=O)c3ccc(F)cc3)oc3ccccc23)cc1	2%	-2%
Cc1ccccc1C(=O)O/N=C1\CCS(=O)(=O)c2sccc21	10%	/
COc1ccc(N2CCN(c3ncnc4onc(C)c34)CC2)cc1	-18%[7.34 µM]	-17%[7.34 µM]
CC(C)c1ccc2c(c1)C(N1CCNCC1)Cc1ccc(F)cc1S2 (centres undefined)	?	11µM*
Cc1nnc(SCC(=O)Nc2ncc(Cc3ccc(F)cc3)s2)n1N	-10%	/
CC(=O)c1cccc(NS(=O)(=O)c2c(C)nc3sc(C)cn3c2=O)c1	-6%	-8%
CN(C)S(=O)(=O)c1ccc2nnn(OCC(=O)NC34CC5CC(CC(C5)C3)C4)c2c1	-11%	0%
Cc1ccc(/C=C2/SC(=O)NC2=S)o1	44%[activator]	i
Cc1cc(C)cc(NS(=O)(=O)c2csc(C(N)=O)c2)c1	-6%	i
CCOC(=O)C1CCCN(C(=O)c2cn(C)c(=O)c3cc(OC)c(OC)cc23)C1 (centres undefined)	-1%	-2%
O=C1c2cccnc2Nc2ccccc2N1CCCF	-1%	/
O=C(NCc1cccs1)C1C(=O)Nc2ccccc2C(=O)N1C1CCCC1 (centres undefined)	-1%	-12%
CCCOc1cccc(C(=O)N(Cc2cccs2)C2CCS(=O)(=O)C2)c1 (centres undefined)	-12%	-22%
CCOC(=O)N1CCC(NC(=O)c2cnn3ccccc23)CC1	-3%	-4%
COc1cc([N+](=O)[O-])cc([N+](=O)[O-])c1N	-6%	-14%
Cc1c(Cc2ccccc2)c(=O)oc2c(C)c(OCC(=O)NCc3ccccn3)ccc12	-10%	-19%
CC(C)CCn1cnc2c(sc3nc4c(cc32)CSC(C)(C)C4)c1=O	-12%	i
O=C1Cn2nnc(-c3ccccc3)c2C2c3ccccc3CCN12 (centres undefined)	-3%	i
O=C(NCc1ccc2c(c1)OCO2)C1CC(=O)N(CCc2ccccc2)C1 (centres undefined)	-15%	i
C=CCn1c(CNc2ccccc2)nnc1SCC(=O)N/N=C/c1ccc(O)cc1O	-18%	-27%
CC1(C)CC2(C)Nc3ccccc3N2C(=S)N1 (centres undefined)	-13%	-21%
COC1C(O)C(C)O[C@H](OC2CC[C@@]3(C=O)C4CC[C@]5(C)C(C6=CC(=O)OC6)CC[C@@]5(O)C4CC[C@@H]3C2)C1O (some centres undefined)	?	?
CCOC(=O)c1c(NC(=O)C2Cc3ccccc3C(=O)O2)sc2c1CCCC2 (centres undefined)	-7%	34%[activator]
O=C(Cn1c(=O)n(Cc2cccs2)c(=O)c2cccnc21)Nc1ccc(F)cc1	-22%	-19%
CC(=O)c1ccc(N2CCN(C(=O)c3cc(-c4ccc5c(c4)OCO5)nc4ccccc34)CC2)cc1	-5%	/
c1ccc(OCC2CO2)cc1 (centres undefined)	-19%	0%
O=C(c1ccc(C(F)(F)F)cc1)N(CCCn1ccnc1)C(c1ccccn1)c1nc2ccccc2[nH]1 (centres undefined)	-4%	1%
Continuation.
SMILES	Vaccinia Venus	VACV mCherry inh
CCCCOC(=O)Cc1c(O)c2ccccc2[nH]c1=O	-9%	/
CC1(C(=O)NCc2ccccc2Br)CCN1Cc1csc2ccccc12 (centres undefined)	-2%	2%
N#CCCn1cc(CNCc2cccnc2)c(-c2ccccc2)n1	-7%	-8%
CN(Cc1c(F)cccc1Cl)C(=O)c1ccc2ccccc2n1	-6%	-3%
Cc1ccc(CSc2nnc(C)c(=O)n2N)cc1	-10%	i
O=C(COC(=O)c1ccc(O)cc1O)NC(=O)c1ccccc1	-3%	i
COc1ccc(NC(=O)c2cc3c(=O)n4ccccc4nc3n2C)c(OC)c1	-15%	i
N#CCCN(Cc1cccnc1)S(=O)(=O)c1ccc2ccccc2c1	-14%	-4%
O=C(CSc1nc2c(c(=O)n1-c1ccccc1)SCC2)N1CCOCC1	-1%	i
Cc1nnc(SCC(=O)NC2CCCCC2)n1N	-4%	-15%
Cc1c(Cl)cccc1NC(=O)CN1CCN(CCN=CC2=C(O)CC(c3ccccc3)CC2=O)CC1 (centres undefined)	-5%	-10%
COc1ccc(S(=O)(=O)N2CCCCC2)cc1C(=O)N1CCCC1	-9%	-15%
Cc1ccc(C(=O)Nc2ccc3nc(N4CCCCC4)cc(C)c3c2)cc1F	-11%	-21%
CCOC(=O)N1C=CC(C)=C[C@@H]2[C@@H](N3C(=O)c4ccccc4C3=O)C(=O)N21	-1%	-20%
Cc1cccc(-n2ccnc2SCC(=O)Nc2cccc(S(=O)(=O)NC3=NCCC3)c2)c1C	-15%	-21%

Next part; the last five above are carried over.
SMILES	Vaccinia Venus	VACV mCherry inh
Cc1c(Cl)cccc1NC(=O)CN1CCN(CCN=CC2=C(O)CC(c3ccccc3)CC2=O)CC1 (centres undefined)	-5%	-10%
COc1ccc(S(=O)(=O)N2CCCCC2)cc1C(=O)N1CCCC1	-9%	-15%
Cc1ccc(C(=O)Nc2ccc3nc(N4CCCCC4)cc(C)c3c2)cc1F	-11%	-21%
CCOC(=O)N1C=CC(C)=C[C@@H]2[C@@H](N3C(=O)c4ccccc4C3=O)C(=O)N21	-1%	-20%
Cc1cccc(-n2ccnc2SCC(=O)Nc2cccc(S(=O)(=O)NC3=NCCC3)c2)c1C	-15%	-21%
Cc1cccc(NCc2nc(SCC(=O)Nc3ccccc3)n[nH]2)c1	-14%	i
COc1ccc(N2C(=O)CC(C3CCCO3)C2=O)cc1 (centres undefined)	0%	-9%
Cc1cccc(C(=O)Nc2cccc(NC(=O)c3ccccc3)c2)c1	-23%	-16%
COc1cccc(CNc2nnnn2C)c1OC	-10%	-12%
Cc1ccc(NC(=O)/C(C#N)=C/c2cc(C)n(-c3ccc(N4CCOCC4)c([N+](=O)[O-])c3)c2C)c(C)c1	1%	i
Cc1ccc(-c2cn3c(n2)sc2cc(C(=O)NCCCc4ccccc4)ccc23)cc1	-15%	-13%
O=CN1CCCN(C(=O)c2cc(NC(=O)c3ccccc3)cc3ncn(C4CCCC4)c23)CC1	-3%	-11%
CC(N)c1ccc(Cl)cc1Cl (centres undefined)	-6%	-11%
O=C(OCc1nnc(-c2ccccc2)o1)c1ccc(-n2cnnn2)cc1	-17%	-11%
CN(C)C(=O)c1nc2ccc(Cl)cn2c1CN1CCCC(OCc2ccccc2)C1 (centres undefined)	-4%	i
CCN(C(=O)CSc1nnc(Nc2cccc(C)c2C)s1)C1CCS(=O)(=O)C1 (centres undefined)	-23%	i
Nc1c2c(nc3ccc(Br)cc13)N(Cc1ccccc1)CC2	?	?
Cc1ccc2c(c1)N(C(=O)N1CCC(C(=O)NCCc3ccccc3)CC1)CC(C)O2 (centres undefined)	-11%	-6%
CCn1cc(C(=O)NC(C)C23CC4CC(CC(C4)C2)C3)cn1 (centres undefined)	-15%	-17%
COc1ccc(NC(=O)c2cc3nc(-c4ccccc4)cc(-c4ccccc4)n3n2)c(OC)c1	-8%	-2%
COC(=O)[C@]1(Cc2ccccc2)N[C@H](CN(C)C(=O)NC(C)C)[C@@H]2C(=O)N(Cc3ccccc3)C(=O)[C@@H]21	-19%	-5%
O=C(Cn1nnc(-c2cc(Cl)ccc2-n2cnnn2)n1)N1CCCc2ccccc21	-11%	/
CCCNC(=O)C1(C)CCN(CCS(=O)(=O)c2ccc(C)cc2)C1 (centres undefined)	?	?

Single values from the results shown:
Reading of CC(N)c1ccc(Cl)cc1Cl (centres undefined) under VACV mCherry inh: -11%
Reading of Cc1cccc(C(=O)Nc2cccc(NC(=O)c3ccccc3)c2)c1 under VACV mCherry inh: -16%
Reading of O=C(OCc1nnc(-c2ccccc2)o1)c1ccc(-n2cnnn2)cc1 under Vaccinia Venus: -17%
Reading of O=C(Cn1nnc(-c2cc(Cl)ccc2-n2cnnn2)n1)N1CCCc2ccccc21 under Vaccinia Venus: -11%
